Source: PubChem BioAssay
D2 agonist – human D2 receptor agonism in beta-arrestin assay | 0.084% of 360,000 active | DiscoveRx PathHunter D2 beta-arrestin, luminescence, 90 min; 100% = 57 uM dopamine signal | P14416 | activation, % (concentration not given with the values); in the data active = activation above about 40%; inconclusive = about 15% to 40%; inactive = below about 15%; further: compound concentration not given in the record; the text of the record calls up to 30% inactive
Target sequence (P14416 whole entry, looked up): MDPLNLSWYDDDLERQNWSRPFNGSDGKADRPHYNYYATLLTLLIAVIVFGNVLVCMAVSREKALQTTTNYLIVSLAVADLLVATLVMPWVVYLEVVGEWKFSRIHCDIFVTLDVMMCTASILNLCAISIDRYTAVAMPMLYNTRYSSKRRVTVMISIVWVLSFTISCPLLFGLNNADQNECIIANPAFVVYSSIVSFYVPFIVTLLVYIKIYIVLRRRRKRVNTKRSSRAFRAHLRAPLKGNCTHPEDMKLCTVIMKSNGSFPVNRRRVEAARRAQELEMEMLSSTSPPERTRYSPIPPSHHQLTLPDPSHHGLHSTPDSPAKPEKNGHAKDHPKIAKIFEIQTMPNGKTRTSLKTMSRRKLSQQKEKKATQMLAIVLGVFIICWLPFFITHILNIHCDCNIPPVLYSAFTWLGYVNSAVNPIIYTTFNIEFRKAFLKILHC
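DiscoveRx PathHunter D2 beta-arrestin cells (2,100/well) attached overnight, then compound-stimulated 90 min at 37 C in HBSS/10 mM HEPES/0.1% Tween-20 buffer; beta-galactosidase complementation read by luminescence after 1 h at ambient temperature. Dopamine 57 uM final (EC100) as control.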
gsp agonist – activates gsp, the McCune-Albright syndrome mutation | gsp mutant cells, cAMP HTRF, 30 min; control for the full effect not named in the record | Potency, µM (doses to about 76.9 µM), for the others: at the highest dose activation (cAMP increase), most hits filed as activators | 0.13% of 340,000 active | AID 624287; active = well fitted activation curve with a large enough effect; inconclusive = small, poorly fitted or top-dose-only effect, or another doubt; inactive = no such curve, though single readings can be large or run the other way; cell line not stated here;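 further: phosphodiesterase inhibitor Ro 20-1724 added with compounds to block cAMP breakdown; potency means the concentration at half of the fitted maximal effect; nearly all actives have a fitted effect of over 60% in size; about a fifth of the inactives were tested at one dose only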
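Cells stably selected in G418 were plated at 2000/well, grown 16-24 hr, then given compounds in DMSO with the PDE inhibitor […] (300 uM solution added) for 30 min at 37C; cAMP was read by HTRF.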
ClpP mod – qHTS Assay for Activators of ClpP; ATP-dependent Clp protease proteolytic subunit (Bacillus subtilis (strain 168)), P80244; purified B. subtilis ClpP, FRET peptide cleavage, 20 min; Potency, µM (doses to about 57.5 µM), inactives show top-dose activity change, negative = active; 1.9% of 340,000 active; AID 651965, 2013; active = well fitted falling curve with a large enough effect; inconclusive = small, poorly fitted or top-dose-only effect; inactive = no such curve, though single readings can be large or run the other way; further: potency means the concentration at half of the fitted maximal effect; the source files actives as falling curves though it sought activators and does not explain the sign; nearly all actives have a fitted effect of over 65% in size; many hits overshoot -100%
Target sequence (P80244 whole entry, looked up): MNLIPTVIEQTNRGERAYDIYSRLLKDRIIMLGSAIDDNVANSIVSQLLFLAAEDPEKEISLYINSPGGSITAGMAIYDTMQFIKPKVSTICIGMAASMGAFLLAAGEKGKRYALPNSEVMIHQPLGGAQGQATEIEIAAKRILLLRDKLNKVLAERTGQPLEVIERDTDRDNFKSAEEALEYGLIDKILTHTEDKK
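ClpP 10 microg/mL final, pH 8 Tris/KCl buffer with BSA, glycerol, Tween-20; compound pinned in; FRET-FV substrate; RT 20 min; Ex320/Em430; ΔFRET vs ADEP 5.8 microM, DMSO, no enzyme.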
Menin MLL FP FL – inhibitors of human menin-MLL interaction, wild-type MLL peptide. 290,000 tested, under 10 active. Fluorescence polarization, fluorescein-MLL peptide displacement from menin. AID 1766. FP activity change, % at 61.4 µM; inconclusive = falling polarisation curve, or a change in total fluorescence; inactive = total fluorescence flat and polarisation flat or rising; no compound was filed as active; the % refers to the polarisation; negative = inhibition;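 further: % of control where 0% means no effect; inhibitors lower the polarisation; unlabelled MLL peptide was the positive control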
gsp antag – antagonists of gsp mutant (McCune-Albright syndrome). Potency, µM (top dose mostly 76.9 µM), for inactives: top-dose activity change, negative = inhibition, hits mostly inhibitors. 0.4% of 340,000 active. gsp-mutant cells, cAMP HTRF, 30 min; control for the full effect not named in the record; active = falling curve of any shape with a large fitted effect; inconclusive = falling curve, mostly with a smaller effect; inactive = flat or rising curve; cell line not stated here;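 further: intracellular cAMP measured with PDE inhibitor Ro 20-1724 present during compound exposure; potency means the concentration at half of the fitted maximal effect; on the % scale 0 is the no-effect control and ±100 the full control effect; nearly all actives have a fitted effect of over 65% in size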
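Measurement of cellular cAMP by homogeneous time-resolved fluorescence following a 30 min compound exposure at 37C. The PDE inhibitor […] was present throughout; the assay buffer was DPBS with 0.05% BSA and 0.005% Tween 20.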
Sfp inh – inhibitors of Bacillus subtilis Sfp phosphopantetheinyl transferase | Potency, µM, without a hit: max response, negative = inhibition, actives largely listed as inhibitors | Q9F4F7 | Biochemical Sfp PPTase activity, qHTS | 3.5% of 310,000 active; active means well fitted inhibition curve with a large enough effect; inconclusive means small, poorly fitted or top-dose-only effect, or another doubt; inactive means no such curve, though single readings can be large or run the other way;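 further: the enzyme is Sfp with the accession as filed and its product quenches rhodamine fluorescence; potency means the concentration at half of the fitted maximal effect; 0% = enzyme reaction without inhibitor and -100% = no enzyme wells; top concentration of the series not given in the record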
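Step 1, compound plus 15 nM Sfp-PPTase, 15 min, room temperature. Step 2, add rhodamine-CoA (5 uM) and BHQ-2-YbbR (12.5 uM). Step 3, read 525/598 nm fluorescence at 0 and 30 min.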
PINK1 modulator – modulators of PINK1 expression; PINK1 immunofluorescence, high-content cytometry, 24 h; Potency, µM (doses to about 76.6 µM), for the others: at the highest dose activation (PINK1 increase), hits mostly activators; 0.2% of 410,000 active; active = well fitted activation curve with a large enough effect; inconclusive = small, poorly fitted or top-dose-only effect; inactive = flat fitted curve, though single readings scatter; cell line not stated here;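 further: potency means the concentration at half of the fitted maximal effect; % of control where 0% means no effect; nearly all actives have a fitted effect of over 65% in size; a mitochondrial uncoupler was the plate control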
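Compound titrations (5 concentrations, 24 h) on a stable cell line; DMSO and CCCP controls. Endpoint: fixed-cell PINK1 immunofluorescence with mitochondrial, cell and nuclear markers, scanned by microplate cytometer.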
Starred values were filed as active, the others as inactive; ? = inconclusive; · = not tested or not shown; [ ] = another dose, or the depositor's remark.

SMILES | D2 agonist | gsp agonist | ClpP mod | Menin MLL FP FL | gsp antag | Sfp inh | PINK1 modulator
O=S(=O)(Nc1ccc(S(=O)(=O)N2CCCC2)cc1)c1ccc(F)cc1 | -2.0 | -6%[15.4 µM] | 1.4% | -0.4 | -10% | 8% | 3.0%
CC(C)Nc1ccc(C(CC(N)=O)NC(=O)Cc2ccc(Br)cc2)cc1[N+](=O)[O-] (configuration not stated) | -1.8 | · | 1.8% | 1.9 | -2% | -2% | 5.7%
CCOC(=O)N/N=C\c1ccc(OC/C=C/c2ccccc2)cc1 | 0.1 | 4% | -0.5% | -0.1 | 11% | 2% | 0.9%
COc1ccc(CCN2C(=O)NC(NS(=O)(=O)c3ccccc3)(C(F)(F)F)C2=O)cc1OC (configuration not stated) | -1.7 | -16%[15.4 µM] | · | 2.9 | 15% | 9% | -0.1%
CC1(C(=O)NS(=O)(=O)c2cccs2)CCN1C(=O)C1(c2ccc(Cl)cc2)CC1 (configuration not stated) | -1.2 | · | -0.1% | · | · | · | -0.6%
O=S1(=O)CCOC[C@H](Cc2ccccc2)N1Cc1ccc(F)cc1 | -4.5 | -16% | -0.2% | · | -3% | · | -0.8%
COc1ccccc1CNC(=O)COc1ccc2c(c1)CCC2 | -4.9 | -7% | -2.6% | -0.9 | 2% | -9% | -1.1%
Cc1ccc(S(=O)(=O)c2nc(NCc3ccc4c(c3)OCO4)sc2Cl)cc1 | 0.8 | -32%[inhibitor] | -2.0% | 2.3 | -7% | 0% | -3.4%[38.3 µM]
COc1cccc(/C=C/C(=O)NCC2CCCCC2)c1 | -5.8 | ? | 4.0% | · | 7% | · | -0.8%
CC(CCc1ccccc1)NC(=O)COC(=O)C12CC3CC(CC(Br)(C3)C1)C2 (configuration not stated) | 4.0 | -31%[inhibitor] | 1.3% | -1.4 | -18% | 15% | 10%
CC1(C(=O)NCC2CC2)CCN1C(=O)C/C=C/c1ccccc1 (configuration not stated) | 1.1 | · | 0.1% | · | · | · | -0.5%
Cc1cc([N+](=O)[O-])ccc1NCc1cccc([N+](=O)[O-])c1 | -4.9 | 14% | 0.4% | 1.7 | -14% | -18% | 14%[38.3 µM]
Oc1ccc(CN2CCN(c3ccccc3)CC2)c2cccnc12 | 0.9 | -44%[inhibitor] | 1.2% | 0.4 | 7% | 25% | ?
Clc1ccc(-c2nc(-c3ccncc3)no2)c(Cl)c1 | -0.1 | 7% | -0.1% | · | 4% | · | -0.8%
Cc1cc(C)c(C(N)=O)c(NC(=O)Nc2ccccc2Cl)n1 | -2.3 | -11% | -12% | -0.1 | 2% | -4% | 0.8%[38.3 µM]
N#Cc1c(-c2cccs2)nc(SCC(=O)c2cccs2)[nH]c1=O | -3.0 | ? | -6.5% | ? | -1% | 9% | -1.5%
CC1C/C(=N\Nc2ccc(S(N)(=O)=O)cc2[N+](=O)[O-])CC(C)(C)C1 (configuration not stated) | -4.6 | 11%[15.4 µM] | 0.7% | 9.2 | -33% | -5% | -1.6%
Clc1ccc(-c2nnc3n2-c2ccccc2SC3)cc1 | -5.5 | -8%[15.4 µM] | · | 2.5 | 0% | -22% | -1.8%
COc1ccc(OC)c(C(=O)c2ccc(C(=O)Nc3ccc4ccccc4c3)cc2)c1 | 0.7 | 7% | 11% | 1.8 | -2% | 4% | 0.3%
O=C(CCN1C(=O)c2cccc3cccc(c23)C1=O)N1CCN(c2ccccc2F)CC1 | -4.1 | -18% | · | 0.4 | 8% | 13% | 7.6%
O=C(Cc1cccs1)Nc1nc2ccccc2s1 | -1.4 | 1% | -1.5% | 7.6 | -1% | 11% | -0.2%
C[C@H](CO)N1C[C@H](C)[C@H](CN(C)C(=O)Nc2ccc(C(F)(F)F)cc2)Oc2ncc(-c3cccnc3)cc2C1=O | -3.9 | -49%[inhibitor] | -11% | · | · | · | 1.7%
CC1CN(C(=O)CNC(=O)Cc2cccc3ccccc23)CC(C)O1 (configuration not stated) | -1.7 | ? | -3.5% | · | 5% | · | 2.5%
COC(=O)C1=C(C)OC(N)=C(C#N)C1c1c(C)nn(-c2ccccc2)c1Cl (configuration not stated) | -0.4 | -16% | -0.7% | 7.5 | -20% | 1% | -1.8%
Cc1ccc2nc(N(CCN(C)C)C(=O)c3ccc4ccccc4c3)sc2c1 | -1.9 | 4% | -0.6% | -2.0 | 10% | ? | ?
O=C(CSc1ccc2c(c1)OCCO2)Nc1ccc(Br)cc1 | -3.8 | -5% | -1.6% | 2.3 | -30% | 0% | -1.2%
COc1ccc(NC(=O)C(c2ccc(C)cc2)N(C)C(=O)c2ccc(=O)[nH]c2)cc1 (configuration not stated) | -1.6 | -49%[inhibitor] | -2.0% | 3.0 | 8% | -24% | -0.5%
COc1ccc(CCN2CC(C(=O)NCC3(O)CCCCC3)CCC2=O)cc1 (configuration not stated) | 0.4 | 19% | -3.0% | · | 3% | 1% | -1.1%
CCS(=O)(=O)c1ncc(CO)n1CCc1ccccc1 | ? | 26%[15.4 µM] | 0.2% | 0.4 | 4% | 19% | 0.8%
O=C(Nc1ccc(Cl)cn1)C1CCCN1S(=O)(=O)c1ccccc1 (configuration not stated) | -1.2 | -11% | 5.4% | 0.3 | ? | -17% | -1.3%
O=S(=O)(Nc1nc2ccccc2nc1NCC1CCCO1)c1cc(Cl)ccc1Cl (configuration not stated) | -1.9 | 0%[15.4 µM] | · | -0.7 | ? | 17% | 8.6%
CCCCn1c(=O)[nH]c(=O)c2c1nc(-c1ccc(C#N)cc1)n2C1CCCC1 | -1.5 | -1% | 74% | 2.6 | 6% | 7% | 1.3%
CCSc1nc(-c2ccc(OC)cc2)cc(-c2ccccc2)c1C#N | -1.3 | 8% | 28µM* | 1.3 | 26% | 8% | ?
CCN(CC)S(=O)(=O)c1cc(NC(=O)COc2ccc(C#N)cc2OC)ccc1C | 0.1 | -25% | -0.3% | -2.2 | -16% | 11% | 2.4%
O=C(COc1ccc(S(=O)(=O)N2CCOCC2)cc1Cl)NC1CCCCC1 | 0.6 | 18% | -1.4% | -2.3 | 5% | 2% | 3.7%
O=C(c1cccc(S(=O)(=O)N2CCCC2)c1)N(Cc1ccco1)C1CCS(=O)(=O)C1 (configuration not stated) | -1.9 | 2% | · | 1.9 | 7% | 11% | 1.8%
Cc1ccc(C(=O)N/C(=C\c2ccc(F)cc2)C(=O)NCc2ccncc2)cc1 | -2.3 | -16%[15.4 µM] | 1.2% | -2.3 | 3% | 14% | 0.7%
CCCCCCN1C[C@H](n2cc(COC(=O)c3ccccc3)nn2)[C@@H](O)C[C@@H]1c1ccc(C)cc1 | 3.0 | 4% | -3.5% | · | · | · | -1.4%
Cn1cnc2c(SCc3ccccc3)ncnc21 | -0.2 | 19% | · | · | 2% | · | -1.6%
CC(=O)c1ccc(NC(=S)NC(C)CCc2ccccc2)cc1 (configuration not stated) | -1.6 | -32%[inhibitor] | -2.5% | 0.8 | -15% | 14% | ?
FC(F)(F)Oc1ccccc1C(c1nnnn1-c1ccc2c(c1)OCCO2)N1CCN(C/C=C/c2ccccc2)CC1 (configuration not stated) | -3.9 | · | -2.6% | · | · | · | -0.4%
O=C(Cc1ccsc1)Nc1ccc(S(=O)(=O)C(F)F)cc1 | -0.4 | 7%[15.4 µM] | · | -1.4 | 11% | -2% | -1.1%
CC(On1nnc2ccc(S(=O)(=O)N3CCOCC3)cc21)C(=O)Nc1ccccc1F (configuration not stated) | ? | 20%[15.4 µM] | · | · | 6% | · | -1.7%
Oc1ccc(-c2csc(Nc3ccccn3)n2)c(O)c1 | ? | -36%[inhibitor] | 0.6% | 2.6 | ? | ? | 8.7%
Cc1ccccc1NC(=O)/C(C#N)=C\c1cc(C)n(-c2ccc(C(=O)O)cc2)c1C | -2.6 | 7% | -1.7% | 2.1 | ? | -3% | 1.2%
CC1(C(=O)N2CC3(CC(c4cccc(NC(=O)CC(c5ccccc5)c5ccccc5)c4)=NO3)C[C@@H]2C(N)=O)CC1 (some centres not stated) | 1.2 | · | -1.3% | 2.2 | -6% | -18% | 2.1%
O=c1c(-c2ccc(F)cc2)nc2cnc(N3CCOCC3)nc2n1C1CC1 | · | · | · | -23 | · | 27% | 7.2%
CCOC(=O)C(C)Oc1ccc(C2NC(=O)NC(C)=C2C(=O)Nc2ccccc2C)cc1 (configuration not stated) | -2.1 | -35%[inhibitor] | -0.2% | 6.1 | -2% | -2% | 3.0%[38.3 µM]
Cc1ccc(C(=O)Nc2cnc3sc(C)nn3c2=O)cc1 | -2.4 | -31% | -0.8% | 0.2 | -5% | -3% | 1.2%
CCC(COC(=O)Nc1cccc(C)c1)NC(=O)OCC(C)C (configuration not stated) | -1.3 | -2% | 10µM* | -2.6 | -6% | 23% | 2.2%
CCOC(=O)COc1cc(-n2c(=S)[nH]c3cc(OC)c(OC)cc3c2=O)c(Cl)cc1Cl | -3.9 | -3%[15.4 µM] | · | 2.6 | 13µM* | 38%[activator] | -1.2%
CCOC(=O)CSc1cc(CSc2ccccc2)nc(-c2ccccc2)n1 | -5.1 | -23% | -5.7% | 2.9 | -20%[15.4 µM] | -5% | -0.3%
C/C(=N\NC(=O)c1ccc(COc2ccccc2)cc1)c1ccncc1 | 2.3 | 28%[15.4 µM] | · | -1.4 | 1% | 24% | 5.6%
CCCCNS(=O)(=O)c1ccc(NC(=O)C(Sc2ccccc2)c2ccccc2)cc1 (configuration not stated) | 4.3 | 2% | -2.7% | 0.3 | 1% | 18% | 3.4%
Clc1cccc(-c2nc3ccc(Cl)cn3c2Cc2ccccc2)c1 | -3.0 | · | ? | · | · | · | 8.8%
COc1cc2c(cc1OC)CN(CC(=O)Nc1ccccc1SC)CC2 | -1.3 | 19% | · | -1.4 | -14% | 10% | 0.0%
